Bioassay records as filed in PubChem BioAssay.
E coli growth: inhibitors of Escherichia coli growth. OD600, 23 h; hits give low values. OD600 absorbance (concentration not given with the values). hit rate 0.21% among 330,000. AID 1053175;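 active = OD600 absorbance below the run mean of sample wells minus 3.6 SD, in any replicate, cut at about 0.56 in these data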;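 note: stock transfer was 300 nL into about 60 µL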
UCH37 DUB inh: human UCH37 deubiquitinating enzyme inhibition; Q9Y5K5; purified proteasome/UCH37, Ub-AMC cleavage fluorescence; inhibition, % (concentration not given with the values); hit rate 0.33% among 330,000;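 active = mean of two replicates above 20%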;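 note: 0% = compound-free wells with enzyme and 100% = wells lacking proteasome; stock transfer was 100 nL into about 20 µL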
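system = Proteasome-associated human UCH37 deubiquitinase | amount = 0.15 nM proteasome as dispensed | medium = pH 7.4 Tris-HCl (50 mM) with ovalbumin, ATP-MgCl2, DTT | incubation = 30 min preincubation with enzyme, 25 min cleavage at room temperature | detection = AMC fluorescence 355/460 nm | read-out basis = percent inhibition | controls = no-proteasome and no-compound wells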
AF4-AF9 inh: MLL-AF4/AF9 protein interaction inhibition | P42568 | AlphaScreen, biotin-AF4 peptide binding to FLAG-AF9 | inhibition, % at 10 µM | hit rate 0.47% among 350,000 | AID 651704;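 active = every replicate reaching a set inhibition limit, whatever the replicate mean, cut at about 25% in these data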;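 note: 0% = plate neutral control median and 100% = total signal loss; the record names both 10 and 1 µM as test concentration; the first replicate is given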
Target sequence (P42568 whole entry, looked up): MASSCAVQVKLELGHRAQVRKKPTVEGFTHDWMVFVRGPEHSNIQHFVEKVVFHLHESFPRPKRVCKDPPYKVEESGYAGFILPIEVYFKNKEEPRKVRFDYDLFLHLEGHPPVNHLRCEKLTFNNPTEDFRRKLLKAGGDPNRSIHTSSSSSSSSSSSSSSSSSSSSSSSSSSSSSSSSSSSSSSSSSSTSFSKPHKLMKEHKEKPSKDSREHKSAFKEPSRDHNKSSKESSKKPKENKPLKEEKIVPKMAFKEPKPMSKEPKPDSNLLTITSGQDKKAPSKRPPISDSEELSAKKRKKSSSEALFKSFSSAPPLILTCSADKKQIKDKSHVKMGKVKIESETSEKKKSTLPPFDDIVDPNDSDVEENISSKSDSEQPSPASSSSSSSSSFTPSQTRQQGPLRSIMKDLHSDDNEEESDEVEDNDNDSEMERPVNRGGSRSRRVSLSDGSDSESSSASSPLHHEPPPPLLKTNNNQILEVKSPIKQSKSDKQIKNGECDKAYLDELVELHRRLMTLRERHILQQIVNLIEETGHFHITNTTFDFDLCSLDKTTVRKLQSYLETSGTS
rRNA inh HTS: selective bacterial rRNA inhibition in E. coli. E. coli WT GFP vs humanized-ribosome RFP mutants, fluorescence, 24 h; hits give low values; DMSO median 0, no signal -100. AID 720706. hit rate 1.6% among 350,000. GFP signal change (wild-type ribosome), % (no concentration beside the values);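 active = significant combined selectivity score with lowered wild-type GFP, culture density cut under 30%, mutant RFP and density less affected; inactive = any of these conditions unmet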; note: one replicate is shown; some compounds called inactive have numbers as strong as hits
A1 inh: inhibitors of the anti-apoptotic protein A1, read as caspase activation; hit rate 0.066% among 330,000; MEF A1-2A-BIM cells, Caspase-Glo 3/7 luminescence, 3 h; percent of clofoctol response, vehicle zero; caspase activation, % (concentration not given with the values);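 active = over half of replicate activation scores above 10%, or exactly half above 10 with the replicate mean above 10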;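 note: wells of about 30 µL received 50 nL stock; many hits fall short of the cut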
FGF22 binding: binders of recombinant human FGF22 by thermal shift. Q9HCT0. SYPRO orange fluorescence; percent of sucrose octasulfate shift, DMSO zero. hit rate 1.5% among 340,000. calls only at 9.99 µM;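 active = melting point raised past a set limit in the mean and every replicate; three in four hits are not shown here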
Target sequence (Q9HCT0 whole entry, looked up): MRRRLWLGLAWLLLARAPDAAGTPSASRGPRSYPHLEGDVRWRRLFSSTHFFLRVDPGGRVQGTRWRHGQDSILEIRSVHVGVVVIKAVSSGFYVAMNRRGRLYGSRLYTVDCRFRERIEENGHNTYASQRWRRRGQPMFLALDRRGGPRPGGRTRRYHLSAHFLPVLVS
rRNA inh HTS OD600: second read-out of rRNA inh HTS, no call of its own (marks repeat the call); OD600 change, %; measured here: OD600 growth;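 optical density of the mix in the first replicate; 0 = DMSO median and -100 = no signal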
rRNA inh HTS RFP: also measured in rRNA inh HTS; calls as there; RFP signal change, %; measured here: RFP humanized mutant strains;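 first replicate; 0 = DMSO median and -100 = no signal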
* marks the source's active call; other numbers are inactive results; i = inactive; / = no result given; & = joins results of further samples. A portion of the library; count on the stated rates, not on these rows.

Molecule	E coli growth	UCH37 DUB inh	AF4-AF9 inh	rRNA inh HTS	rRNA inh HTS OD600	rRNA inh HTS RFP	A1 inh	FGF22 binding
CN(CCOc1ccc(Cl)cc1)c1ccc(S(=O)(=O)N2CCCCC2)cn1	0.73	-1.9	/	/	/	/	-0.2	/
COc1ccc2nc(NC(=O)C3CCN(S(=O)(=O)c4cccc5nsnc45)CC3)sc2c1	0.71	1.9	/	/	/	/	0.3	/
CCOc1ccc(OCC)c(NC(=O)C(NS(=O)(=O)c2ccc3c(c2)oc(=O)n3C)C(C)C)c1 (centres undefined)	0.64	3.3	/	/	/	/	0.7	/
CC1CN(S(=O)(=O)c2cccc(C(=O)OCC(=O)Nc3ccc4c(c3)OCO4)c2)CC(C)O1 (centres undefined)	0.72	0.3	/	/	/	/	0.5	/
COC(=O)CSc1nnc(CNC(=O)c2ccc(S(=O)(=O)N3CCCCC3)cc2)n1C	0.67	2.6	/	/	/	/	0.5	/
Cc1cc(C)nc(SCC(=O)Nc2ccc(N3CCOCC3)c(Cl)c2)n1	0.73	-1.0	/	/	/	/	-0.2	/
Cc1noc(/C=C/N(C)C)c1S(=O)(=O)N1CCCC(C(=O)NCc2ccc(Cl)cc2)C1 (centres undefined)	0.69	9.1	/	/	/	/	0.5	/
O=C(c1ccc(CNS(=O)(=O)c2ccccc2)cc1)N1CCN(c2ccccn2)CC1	0.76	0.2	/	/	/	/	0.8	/
O=C(c1cccc(F)c1)N1CCN(CC2CC3C=CC2C3)CC1 (centres undefined)	0.76	1.2	/	/	/	/	0.0	/
CCOC(=O)Cn1c(=O)oc2cc(S(=O)(=O)Nc3cc(OCC)ccc3OCC)ccc21	0.68	4.1	/	/	/	/	-0.8	/
CCn1nnnc1SCC(=O)Nc1ccc(OCc2ccccc2)cc1	0.77	0.9	/	/	/	/	-0.7	/
COc1ccc(NC(=O)CSc2nnc(CNC(=O)c3ccco3)n2-c2ccccc2OC)cc1	0.77	1.4	/	/	/	/	0.0	/
O=C(c1cccn2c(=O)c3cc(Br)ccc3nc12)N1CCN(c2ccccn2)CC1	0.77	-34	/	/	/	/	-0.3	/
CCCCCSc1nc(O)cc(=O)[nH]1	0.69	1.7	/	/	/	/	1.5	/
O=C(NCc1ccc2c(c1)OCO2)c1cc(-c2ccccc2)on1	0.69	1.2	/	/	/	/	-0.8	/
COc1c(O[C@@H]2O[C@H](CO)[C@@H](O)[C@H](O)[C@H]2O)cc2c(c1OC)-c1ccc(SC)c(=O)cc1C(NC(C)=O)CC2 (some centres undefined)	/	2.6	1.3	/	/	/	/	i
C=CC1=C(C(=O)O)N2C(=O)[C@@H](NC(=O)/C(=N\OCC(=O)O)c3csc(N)n3)[C@H]2SC1	/	2.0	-3.7	/	/	/	/	i
O=[N+]([O-])c1ccc(C=Nc2ccc(Cl)c([N+](=O)[O-])c2)s1	/	7.4	-0.7	-3	-2	0.4	/	/
COc1ccc2c3c(n(C)c2c1)[C@@H](CO)N(CC1CCCC1)CC31CCN(C(=O)CN(C)C)CC1	/	/	0.2	1	-7	-1.2	/	i
COCC(=O)Nc1ccc2c(c1)[C@H]1C[C@@H](CC(=O)NCC3CC3)O[C@H](CO)[C@H]1O2	/	/	0.9	11&3	12&8	1.0&-2.2	/	i
C[C@H](CO)N1C[C@H](C)[C@H](CN(C)Cc2ccncc2)Oc2c(NC(=O)Nc3ccccc3)cccc2C1=O	/	/	-0.4	-2	-4	-4.6	/	i
C[C@@H]1CN([C@H](C)CO)S(=O)(=O)c2ccc(Br)cc2O[C@@H]1CN(C)C(=O)NC1CCCC1	/	/	-0.5&-0.2	2&-1	-3&-1	1.8&-5.1	/	i
Cc1ccc(S(=O)(=O)N[C@@H]2C=C[C@@H](CC(=O)NCc3ccccc3F)O[C@@H]2CO)cc1	/	/	1.6	2	1	-0.7	/	i
CN(C)C(=O)C[C@@H]1C[C@H]2c3cc(NC(=O)c4ccc5c(c4)OCO5)ccc3O[C@H]2[C@@H](CO)O1	/	/	-2.1	-1	2	-4.6	/	i
Cc1ccc(S(=O)(=O)N(C)C[C@H]2OCCCC[C@@H](C)Oc3ccc(NS(=O)(=O)c4ccc(Cl)cc4)cc3C(=O)N([C@H](C)CO)C[C@H]2C)cc1	/	/	-2.0	1	-6	-4.5	/	i
C[C@@H]1CN([C@H](C)CO)C(=O)c2c(c3ccccc3n2C)-c2ccccc2CO[C@H]1CN(C)C(=O)[C@H](C)c1ccccc1	/	/	-3.2	1	-2	2.2	/	i
CSCC[C@H]1COC[C@@H](Cc2ccccc2)N1c1ccccc1	/	/	6.5	-11	-16	-0.4	/	i
Cc1noc(C)c1NC(=O)N(C)C[C@H]1Oc2ccc(NS(=O)(=O)c3cn(C)cn3)cc2CC(=O)N([C@@H](C)CO)C[C@@H]1C	/	/	-9.2	3	5	-1.0	/	i
O=C(NCc1ccco1)c1cccc(-c2cncc3nccn23)c1	/	/	-4.1	5	8	-0.3	/	i
CO[C@H]1CN(C)C(=O)c2cc(NS(=O)(=O)CC(F)(F)F)ccc2OC[C@H](C)N(Cc2nccs2)C[C@H]1C	/	/	-1.5	-3	2	-4.8	/	i
COc1cc2[nH]c(=O)c(C(=O)NCc3ccc(C)cc3)c(O)c2cc1OC	/	/	-3.6	11	2	2.6	/	i
COc1ccccc1NC(=O)N[C@H]1C=C[C@H](CC(=O)NCc2ccc(Cl)c(Cl)c2)O[C@H]1CO	/	/	-0.6	-3	-4	1.0	/	i
COc1cccc(S(=O)(=O)N2CCCCN3[C@H](CO)[C@@H](c4ccc(C#CC(C)C)cc4)[C@@H]3C2)c1	/	/	-1.4	7	7	0.2	/	i
CCNC(=O)C[C@@H]1CC[C@H]2[C@H](COc3ccc(NC(=O)Nc4ccccc4Cl)cc3C(=O)N2C)O1	/	/	-0.3	-2	-6	3.0	/	i
C[C@@H]1CN([C@@H](C)CO)C(=O)c2cc(C#CCN(C)C)cnc2O[C@@H]1CN(C)C(=O)CN1CCOCC1	/	/	-1.9	6	10	-5.4	/	i
CO[C@H]1CN(C)C(=O)c2ccc(NC(=O)C3CC3)cc2OC[C@H](C)N(C(=O)NC(C)C)C[C@@H]1C	/	/	-1.8	2	3	0.5	/	i
Cc1noc(C)c1NC(=O)N(C)C[C@H]1Oc2ccc(NC(=O)C3CCCCC3)cc2CC(=O)N([C@@H](C)CO)C[C@H]1C	/	/	-12	3	-3	0.1	/	i
Cn1ccc2c(-c3cccc(C=O)c3F)cc3c(c21)C1CCC3C1 (centres undefined)	/	/	14	3	7	14	/	i
O=S(=O)(c1ccccc1F)N1CCCCN2[C@@H](CO)[C@@H](c3ccc(-c4ccncc4)cc3)[C@@H]2C1	/	/	5.5	-4	4	3.3	/	i
O=C(Nc1cc(F)ccc1F)N1C[C@H]2[C@@H](c3ccccc31)[C@H](CO)N2Cc1cccnc1	/	/	-5.2	-5	-4	0.8	/	i
CN(Cc1ccccc1)C(c1ccnc2ccccc12)c1nnnn1-c1ccc2c(c1)OCCO2 (centres undefined)	/	/	0.6	-4	-6	1.8	/	i
Nc1cc2c(cc1[N+](=O)[O-])-c1ccccc1C2=NO	/	/	0.5	-66	-77	-22	/	i
CCCNC(=O)[C@@H]1[C@@H](CO)[C@@H]2Cn3c(ccc(-c4cccc(F)c4)c3=O)[C@@H]2N1C(C)=O	/	/	-2.4	2	4	1.7	/	i
Cn1cnc(S(=O)(=O)N2CCCC(c3cc(C(=O)Nc4ccc(F)c(Cl)c4)no3)C2)c1 (centres undefined)	/	/	3.4	-25*	-20*	2.6*	/	i
Cc1noc(C)c1NC(=O)N(C)C[C@H]1OCCCC[C@H](C)Oc2ccc(NC(=O)NC(C)C)cc2C(=O)N([C@@H](C)CO)C[C@@H]1C	/	/	-2.9	2	-1	2.8	/	i
O=C(C[C@H]1C=C[C@H](NC(=O)C2CCOCC2)[C@H](CO)O1)NCCc1cscn1	/	/	3.1	5	6	-2.1	/	i
O=C(C[C@H]1C[C@H]2c3cc(NC(=O)Nc4ccc(C(F)(F)F)cc4)ccc3O[C@H]2[C@@H](CO)O1)NCc1ccc(Cl)cc1	/	/	1.0	-3	-1	0.1	/	i
O=C(CCCN1C(=O)C(c2ccccc2)Oc2cccnc21)Nc1ccccc1Br (centres undefined)	/	/	-2.5	8	-1	0.7	/	i
CCS(=O)(=O)N1[C@H](CO)[C@@H](c2ccccc2C2=CCCCC2)[C@@H]1C#N	/	/	-0.2	-27	-50	2.2	/	i
COc1ccc2c3c(n(C)c2c1)[C@@H](CO)N(Cc1ccc(F)cc1)CC31CCN(C)CC1	/	/	22	4	6	1.2	/	i

Additional entries:
Molecule	E coli growth	UCH37 DUB inh	AF4-AF9 inh	rRNA inh HTS	rRNA inh HTS OD600	rRNA inh HTS RFP	A1 inh	FGF22 binding
CCCCn1nnnc1C1(C)CCC(=O)N1Cc1cc(OC)ccc1OC (centres undefined)	/	/	-2.2	14	6	1.5	/	i
CC(C)NC(=O)Nc1ccc2c(c1)CC(=O)N([C@@H](C)CO)C[C@H](C)[C@H](CN(C)Cc1ccncc1)O2	/	/	-1.2	0	2	-3.7	/	i
O=C(C[C@@H]1C[C@@H]2c3cc(NC(=O)c4cccnc4)ccc3O[C@@H]2[C@@H](CO)O1)NCc1cccc(F)c1	/	/	-1.5	-4	-9	-1.4	/	i
C[C@H]1CN([C@@H](C)CO)S(=O)(=O)c2ccc(Br)cc2O[C@@H]1CN(C)C(=O)Cc1ccccc1	/	/	0.9&0.1	0&-4	-7&6	-0.9&0.2	/	i
O=C(CN1CCOCC1)N[C@@H]1CC[C@@H](CCNC(=O)C2CCCCC2)O[C@H]1CO	/	/	-1.5	2	12	-0.3	/	i
CC(C)NC(=O)Nc1ccc2c(c1)C(=O)N([C@H](C)CO)C[C@H](C)[C@@H](CN(C)C(=O)Nc1cccc3ccccc13)OCCCC[C@@H](C)O2	/	/	-0.7	-1	2	1.1	/	i
O=C(C[C@@H]1CC[C@@H](NC(=O)c2cnccn2)[C@@H](CO)O1)NCc1ccccc1F	/	/	-0.1	2	8	-2.5	/	i
CC(C)CNC(=O)C1(C)CCCN1C(=O)c1cc2ccccc2s1 (centres undefined)	/	/	0.6	5	12	-0.3	/	i
CO[C@H]1CN(C)C(=O)c2cc(NC(=O)Cc3ccccc3)ccc2OC[C@@H](C)NC[C@@H]1C	/	/	-2.1	2	-2	-2.7	/	i
C[C@H]1CN([C@@H](C)CO)S(=O)(=O)c2ccc(-c3ccc(F)cc3)cc2O[C@H]1CN(C)C(=O)C1CCOCC1	/	/	-1.0	1	-1	2.2	/	i
COc1ccc(NC(=O)N(C)C[C@H]2Oc3c(cccc3N(C)C)C(=O)N([C@@H](C)CO)C[C@H]2C)cc1	/	/	-5.5	-2	-5	-3.7	/	i
